Screens: PubChem, National Center for Advancing Translational Sciences (NCATS)
Rango-impB inh: qHTS Assay for Inhibitors of Rango (Ran-regulated importin-beta cargo) - Importin beta complex formation. Importin subunit beta-1 (Homo sapiens), Q14974. Rango CFP/YFP FRET sensor + importin beta, 45 min. Potency, µM (doses to about 92.2 µM), without a hit: at the top dose inhibition of complex formation. 0.031% of 340,000 active; active = rising FRET ratio curve, often small or poorly fitted; inconclusive = mostly compound fluorescence or quenching in the first reads; inactive = flat curves in all reads;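 note: potency is the fitted concentration of half-maximal effect; 0% = DMSO wells and 100% = buffer wells lacking importin beta; nearly all actives have a fitted effect of over 15% in size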
Target sequence (Q14974 whole entry, looked up): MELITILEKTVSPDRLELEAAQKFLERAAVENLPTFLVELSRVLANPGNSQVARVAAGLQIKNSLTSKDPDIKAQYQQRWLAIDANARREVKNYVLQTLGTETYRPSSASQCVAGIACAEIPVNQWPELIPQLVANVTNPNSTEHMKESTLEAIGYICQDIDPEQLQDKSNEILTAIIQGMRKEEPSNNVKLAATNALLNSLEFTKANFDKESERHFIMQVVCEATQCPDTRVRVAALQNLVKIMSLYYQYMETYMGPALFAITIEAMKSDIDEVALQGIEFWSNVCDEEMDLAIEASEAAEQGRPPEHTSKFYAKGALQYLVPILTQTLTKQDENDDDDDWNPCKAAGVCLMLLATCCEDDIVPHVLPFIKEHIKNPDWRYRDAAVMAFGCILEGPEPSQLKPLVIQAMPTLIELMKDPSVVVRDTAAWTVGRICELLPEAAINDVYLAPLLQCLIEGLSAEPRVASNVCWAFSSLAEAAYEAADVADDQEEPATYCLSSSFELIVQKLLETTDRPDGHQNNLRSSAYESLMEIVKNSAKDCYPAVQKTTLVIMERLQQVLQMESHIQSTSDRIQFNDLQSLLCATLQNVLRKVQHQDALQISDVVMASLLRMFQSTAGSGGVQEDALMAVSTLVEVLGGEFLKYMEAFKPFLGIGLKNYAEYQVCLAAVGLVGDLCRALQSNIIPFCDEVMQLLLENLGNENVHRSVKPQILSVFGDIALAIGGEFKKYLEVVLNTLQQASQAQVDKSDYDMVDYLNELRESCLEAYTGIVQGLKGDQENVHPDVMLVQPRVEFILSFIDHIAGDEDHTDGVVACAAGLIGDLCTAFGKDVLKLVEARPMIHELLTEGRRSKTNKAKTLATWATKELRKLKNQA
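FRET biosensor Rango (snurportin 1 IBB between N-terminal EYFP and C-terminal Cerulean), 50 nM in PBS/1 mM DTT/0.02% Tween-20/0.1% BSA, preincubated 5 min RT with compound; 0.125 microM importin beta added, 45 min RT, CFP/YFP FRET ratio read.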
Rango dissoc inh: qHTS Assay for Inhibitors of RanGTP induced Rango (Ran-regulated importin-beta cargo) - Importin beta complex dissociation; Snurportin-1 (Homo sapiens) + GTP-binding nuclear protein Ran (Homo sapiens) + Importin …; Biochemical FRET Rango-importin beta, RanGTP-induced dissociation; Potency, µM (series often up to 46.1 µM), without a hit: at the top dose activity change, negative = inhibition; 0.071% of 340,000 active; active means falling FRET ratio curve, often poorly fitted, with flat reads before Ran was added; inconclusive means other falling curves, or compound fluorescence or quenching; inactive means flat or rising ratio curve;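 note: potency is the fitted concentration of half-maximal effect; % of control where 0% means no effect; nearly all actives have a fitted effect of over 45% in size; -100% = wells without RanGTP and RCC1; the record marks most hits as doubtful in a second field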
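Rango/importin beta premix (0.1/0.25 uM final), PBS + 1 mM DTT + 0.02% Tween-20 + 0.1% BSA; cpd 5 min RT; FRET pre-read; + RanGTP-RCC1 (0.6 uM Ran, 2 mM GTP, 0.2 uM RCC1); 45 min RT; FRET post-read, ex 430, em 486/530 nm.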
GLA inh pH 4.5: qHTS Assay for Inhibitors of Human alpha-Galactosidase at pH 4.5 | Alpha-galactosidase A (Homo sapiens), P06280 | 230,000 tested, under 10 active | purified enzyme, 4-MU-alpha-Gal fluorescence, pH 4.5 | AID 1467, 2008 | activity change, negative = inhibition, % at 105 µM; inconclusive = small, poorly fitted or top-dose-only inhibition, or a rising curve; inactive = flat fitted curve, though single readings scatter; no compound was filed as active;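 note: 0% = full activity with enzyme and -100% = basal without enzyme; dose as in the result columns while the protocol names 77 µM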
miR-21 reporter: qHTS Assay for Modulators of miRNAs and/orActivators of miR-21. HeLa miR-21 FLuc reporter, luciferase, 48 h. Potency, µM (highest dose often 38.3 µM), without a hit: top-dose reporter change, positive = more light. 340,000 tested, under 10 active; active = well fitted rising curve with a large enough effect; inconclusive = small, poorly fitted or top-dose-only effect; inactive = no such curve, though single readings can be large or run the other way;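 note: % of control where 0% means no effect; miR-21 action dims this reporter so a rising signal means less miR-21 action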
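Luminescence from a firefly luciferase reporter carrying a miR-21 binding site downstream, stably expressed under a CMV promoter in HeLa cells that make miR-21 endogenously, reports miRNA modulation after 48 h compound exposure up to approximately 40uM final.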
* marks the source's active call; other numbers are inactive results; ? = inconclusive; / = no result given; & = joins results of further samples.

SMILES	Rango-impB inh	Rango dissoc inh	GLA inh pH 4.5	miR-21 reporter
CCN(CC)C(=O)Cn1c(=O)c2ccccc2n2c(=S)sc(-c3cccc(C)c3)c12	?	?	3	0%
O=C(COC(=O)c1ccc(CN2CCCC2=O)cc1)Nc1ccc(F)cc1	-1.1%	-12%	/	/
CCOC(=O)c1ccc(-n2c(CCC(=O)O)ccc2-c2ccccc2)cc1	0.6%	29%	/	2%&-1%
COCCNc1nc(-c2cc(C)c(C)cc2C)cs1	-1.5%	10%	0	-37%
CCOc1ccc(C(=O)NCC(=O)Nc2ccncc2)cc1OCC	-4.7%	41%	/	/
CCCOC1CCCN(Cc2cn(C)nc2-c2ccccc2F)C1 (stereo not drawn)	5.5%	-11%	-7	-6%
CCN(c1ccccc1)S(=O)(=O)c1ccc(N2CCN(c3ccc(O)cc3)CC2)nc1	-0.1%	0%	/	/
COc1ccc(/C=C(\NC(=O)c2ccccc2)C(=O)N/N=C/c2cccnc2)cc1	5.3%	-8%	-3	-14%
CC1CCN(c2nc(-c3ccc(F)cc3)cc(C(F)(F)F)n2)CC1	2.9%	11%	4	-1%
Cc1ccc(C)c(NC(=S)N2CCN(S(=O)(=O)c3ccccc3)CC2)c1	1.2%	3%	/	-3%
CCN(CC)Cc1cc2[nH]c3c4ccc(Cl)cc4ncc3c2cc1OC	-0.1%	14%	-2	?
CCOc1ccc(C(=O)Nc2sc3c(c2C(=O)OC)CC(C)(C)NC3(C)C)cc1	-1.1%	15%	1	-1%
COc1cc(NC(=O)/C=C/c2ccccc2[N+](=O)[O-])cc(OC)c1	-0.2%	-6%	4	-26%
Cc1ccc(NC(=Nc2ccc(Br)cc2)N2CCOCC2)cc1C	-2.1%	-1%	/	0%
CCOC(=O)COc1cccc2c(=O)n(CC(=O)N3CCc4ccccc43)ccc12	-1.3%	10%	7	-3%
CN(C)CCCN(C(=O)c1ccc2c(c1)CCCC2)c1nc2cc3c(cc2s1)OCO3	1.4%	-15%	/	-7%
CCC1COCCS(=O)(=O)N1Cc1ccccc1 (stereo not drawn)	7.4%	9%	/	0%
Cc1cccc(S(=O)(=O)Nc2ccc(-c3ccc4nncn4n3)cc2)c1	2.3%	-9%	/	/
Cc1ncc([N+](=O)[O-])n1CC(=O)Nc1ccc(Cl)cc1	-1.6%	16%	/	-1%
NC(=O)c1c(NC(=O)c2ccccc2)sc2c1CCc1ccccc1-2	0.9%	-9%	7	-45%
O=C(NCc1ccccc1C(F)(F)F)C1CC(c2ccccc2C(F)(F)F)=NO1 (stereo not drawn)	2.6%	19%	-19	5%
O=C(NC1CCN(C(=S)NCc2ccco2)CC1)NC12CC3CC(CC(C3)C1)C2	-0.6%	-28%	-4	-6%
COc1cccc(NC(=O)CN(C)C(=O)C2CC3C=CC2C3)c1 (stereo not drawn)	-2.4%	-7%	/	/
CC(NC(=O)c1cc(-c2ccccc2)on1)c1ccccc1 (stereo not drawn)	-0.6%	-1%	4	-11%
CCc1ccccc1NC(=S)N1CCC(C(=O)c2ccc(F)cc2)CC1	-0.5%	-3%	-3	-1%
CCN(CC)CCCNC(=O)CCn1nc(-c2ccccc2)ccc1=O	-1.2%	0%	/	4%
CC(CNCCCn1cnc2c(OCc3ccccc3)ncnc21)c1ccccc1 (stereo not drawn)	3.2%	11%	/	/
COc1cccc(NC(=S)NCCc2ccccn2)c1	-6.5%	25%	-2	-18%
Cn1c(=O)c2c(nc(SCC(=O)NC34CC5CC(CC(C5)C3)C4)n2C)n(C)c1=O	4.1%	1%	2	-1%
CC[C@]1(C(=O)OC)[C@H]2C(=O)N(C)C(=O)[C@H]2[C@H]2CN=C(SCc3ccc(C(=O)OC)cc3)N21	6.3%	1%	/	/
COc1cccc(NC(=O)c2ccc(CN3CCOCC3)cc2)c1	3.1%	-5%	2	-24%
CCc1ccccc1N(C(=O)CCC(=O)Nc1cc(C)on1)C(C(=O)NC1CCCC1)c1ccco1 (stereo not drawn)	-0.2%	-10%	-4	12%
CO/N=C/NC(=O)NOCc1c(Cl)cccc1Cl	-0.5%	1%	4	-22%
CCC1(CC)C(=O)N(c2ccccc2)C(=N)N(c2ccccc2)C1=O	-0.3%	-13%	/	/
COc1ccc(C2/C=C\CN(C(=O)C3CCCCC3)CC(=O)N2Cc2ccc(F)cc2)cc1 (stereo not drawn)	-0.8%	2%	-12	2%
COC(=O)c1ccc(NC(=O)C(=O)c2c[nH]c3ccccc23)cc1	3.0%	6%	/	-16%
CN1C(=S)SC(N2OC3C(=O)N(c4ccccc4)C(=O)C3C2c2ccccc2)C1(C)C (stereo not drawn)	/	/	0	-9%
O=C(Cn1cccn1)N1CCCC(N2CCN(c3cccc(C(F)(F)F)c3)CC2)C1 (stereo not drawn)	1.4%	-5%	/	-3%
O=C(COC(=O)c1cnccn1)NCc1ccc(Cl)cc1	-1.8%	8%	-2	0%
O=C(NCC1CCCN(Cc2cccc(C(F)(F)F)c2)C1)c1ccc(F)cc1 (stereo not drawn)	-0.1%	-11%	-6	-1%
S=c1[nH]cnc2sc(-c3ccccc3)cc12	0.5%	5%	-10	-36%
CCOC(=O)Nc1ccc(S(=O)(=O)Nc2nccc(C)n2)cc1	-2.4%	1%	1	-3%
CCOC(=O)CCNC(=O)N1CCC(CCC(=O)NCc2ccc(F)cc2)CC1	-1.7%	2%	/	1%
CCOC(=O)C1=C(C)NC(=O)NC1c1cccc(O)c1 (stereo not drawn)	?	-10%	5	2%
CCOC(=O)c1ccc(NC(=O)CCNS(=O)(=O)c2cc(Br)cnc2N)cc1	2.1%	10%	/	6%
Cc1c(C(=O)N(CC(C)C)c2c(N)n(Cc3ccccc3)c(=O)[nH]c2=O)sc2nc3n(c(=O)c12)CCC3	-2.7%	7%	/	/
CCCCCC(=O)Nc1nnc(CCc2ccccc2)s1	-2.4%	-15%	/	-5%
Cc1ccccc1CNC(=O)CCC(=O)N1CCOc2ccc(Cl)cc21	-1.5%	-5%	/	-3%
COc1ccc(N(CC(=O)Nc2cc(Cl)ccc2OC)S(=O)(=O)c2c(C)noc2C)cc1	-1.1%	0%	0	26%
CNc1ccccc1C(C)(C)c1cc(-c2cccc([N+](=O)[O-])c2)no1	1.6%	-5%	-27	11%
O=C(Nc1ccc(F)cc1)c1ccc(Br)c(S(=O)(=O)N2CCOCC2)c1	-2.7%	-6%	/	22%
COc1ccc(-c2noc(CNC(=O)C(C)Oc3ccccc3)n2)cc1 (stereo not drawn)	2.3%	16%	/	5%
COc1ccc(/C=C2\SC(=O)N=C2N)cc1	?	?	8	-3%
COc1ccc(Nc2ccccc2C(=O)O)cc1	3.0%	28%	-5	-28%
CC(=C\C(=O)O)/C(=C\c1cccc2ccccc12)C(=O)O	0.0%	-9%	-5	-25%
O=C1COc2ccc(C(=O)COC(=O)c3c(F)cccc3Cl)cc2N1	-2.4%	-1%	/	/
CCOC(=O)N1CCN(C(=O)c2cccc(OC)c2O)CC1	-2.0%	14%	-2	-1%
CCOc1ccccc1C(=O)N/N=C/c1ccoc1	-1.3%	0%	/	-1%
CC(C)COP(=O)(CNC(=O)CN1C(=O)c2ccccc2S1(=O)=O)OCC(C)C	-1.8%	-5%	-3	-1%
Cc1ccc(N(C(=O)c2cccs2)C2C=CS(=O)(=O)C2)cc1 (stereo not drawn)	0.4%	-10%	-2	-11%
(next part)
SMILES	Rango-impB inh	Rango dissoc inh	GLA inh pH 4.5	miR-21 reporter
Cc1ccc(C)c(S(=O)(=O)NCCN2CCOCC2)c1	3.0%	1%	/	-1%
Cc1cccc[n+]1CC(=O)/C=C1\N(C)c2ccccc2C1(C)C	-0.8%	3%	5	26%
Cc1nnc(NC(=O)CSc2nnc(Cc3ccccc3)n2-c2ccccc2)s1	3.3%	8%	-7	-4%
CCOC(=O)C1=C(C)Nc2ccccc2N=C1NC(=O)Cc1ccc(Br)cc1	0.7%	-1%	2	-9%
CC1=NN(c2ccc(N)cc2)C(=O)C1	3.0%	1%	1	3%
CC12CN3CCN(CC(C3)C1(O)CN1CCOCC1)C2 (stereo not drawn)	1.8%	-10%	4	0%
Cc1ccc(S(=O)(=O)Nc2cccnc2Oc2ccc(Cl)cc2)cc1	1.7%	0%	-1	-1%
O=C(CCCNC(=O)c1ccc(Cl)cc1)NCc1ccccc1F	2.7%	-9%	/	3%
Cc1cccc(NC(=O)c2cc(NC(=O)c3ccco3)ccc2Cl)n1	-3.7%	5%	5	8%
CCc1ccc(-c2nc(CS(=O)CC(=O)O)c(C)o2)cc1 (stereo not drawn)	-0.4%	18%	3	-34%
N#CCC(=O)Nc1ccc(C(=O)OCC(=O)Nc2sc3c(c2C#N)CCCC3)cc1	-4.0%	2%	/	/
CC(C)NC(=S)NC(=O)/C=C/c1ccc(F)cc1	-0.9%	4%	-7	-11%

Reprinted from the results shown (11 entries):
SMILES	Rango-impB inh	Rango dissoc inh	GLA inh pH 4.5	miR-21 reporter
Cc1ccc(C)c(S(=O)(=O)NCCN2CCOCC2)c1	3.0%	1%	/	-1%
Cc1cccc[n+]1CC(=O)/C=C1\N(C)c2ccccc2C1(C)C	-0.8%	3%	5	26%
Cc1nnc(NC(=O)CSc2nnc(Cc3ccccc3)n2-c2ccccc2)s1	3.3%	8%	-7	-4%
CCOC(=O)C1=C(C)Nc2ccccc2N=C1NC(=O)Cc1ccc(Br)cc1	0.7%	-1%	2	-9%
CC1=NN(c2ccc(N)cc2)C(=O)C1	3.0%	1%	1	3%
CC12CN3CCN(CC(C3)C1(O)CN1CCOCC1)C2 (stereo not drawn)	1.8%	-10%	4	0%
Cc1ccc(S(=O)(=O)Nc2cccnc2Oc2ccc(Cl)cc2)cc1	1.7%	0%	-1	-1%
O=C(CCCNC(=O)c1ccc(Cl)cc1)NCc1ccccc1F	2.7%	-9%	/	3%
Cc1cccc(NC(=O)c2cc(NC(=O)c3ccco3)ccc2Cl)n1	-3.7%	5%	5	8%
CCc1ccc(-c2nc(CS(=O)CC(=O)O)c(C)o2)cc1 (stereo not drawn)	-0.4%	18%	3	-34%
N#CCC(=O)Nc1ccc(C(=O)OCC(=O)Nc2sc3c(c2C#N)CCCC3)cc1	-4.0%	2%	/	/

(cont.)
SMILES	Rango-impB inh	Rango dissoc inh	GLA inh pH 4.5	miR-21 reporter
CCCCN(CC)CCNC(=O)c1cn(C)c(=O)c2c1c1ccccc1n2C	6.2%	1%	/	0%&1%
O=c1[nH]c(C2CCN(S(=O)(=O)c3ccc4c(c3)OCCO4)CC2)nc2c1nnn2Cc1ccc(F)cc1	-2.7%	-5%	/	-2%
O=C1CNC(=S)N1CCCn1ccnc1	0.4%	0%	-21	-2%
COc1ccc(CCC(=O)Nc2c(C)n(C)n(-c3ccccc3)c2=O)cc1	0.9%	1%	-7	0%
CN(C)/C(CN1CCN(C=O)CC1)=C1\N=C(c2ccccc2)OC1=O	0.1%	-8%	-20	0%
COCCn1c(SCC(=O)Nc2cc(Cl)ccc2OC)nc2c(c1=O)SC(C)C2 (stereo not drawn)	0.4%	1%	-6	1%
COc1cc(Br)c(C2C(C#N)=C(N)Oc3n[nH]c(-c4cccnc4)c32)cc1OC (stereo not drawn)	-0.3%	-4%	-10	-1%
CC(C)c1nnc(NC(=O)CCCC(=O)O)s1	-1.1%	36%	-5	-1%
CCN(CC)S(=O)(=O)c1cc(C(=O)Nc2cccnc2Cl)ccc1Cl	3.2%	15%	4	-2%
Cc1cc(C)cc(NC(=O)Cn2nnc3ccccc3c2=O)c1	0.4%	-7%	-1	-5%
O=C(COC(=O)c1ccccc1SCC(=O)N1CCCC1)NC1CCS(=O)(=O)C1 (stereo not drawn)	-0.8%	1%	/	/

This is a subset; count on the stated rates, not on these rows.
